Six1-Eya2 blk – qHTS Assay for Inhibitors of the Six1/Eya2 Interaction | activity change, % (test concentration not listed) | actives 0.56% (n = 360,000) | AlphaScreen GST-Six1/His-Eya2 binding, biochemical; active compounds read low; control for the full effect not named in the record | Homeobox protein SIX1 (Homo sapiens) + Protein phosphatase EYA2 (Homo sapiens), …; in the data active = activity change below about -65%; inconclusive = about -30% to -65%; inactive = above about -30%; also: % is scaled to controls: 0 for no effect and ±100 for the full control effect
Target sequence (O00167 whole entry, looked up): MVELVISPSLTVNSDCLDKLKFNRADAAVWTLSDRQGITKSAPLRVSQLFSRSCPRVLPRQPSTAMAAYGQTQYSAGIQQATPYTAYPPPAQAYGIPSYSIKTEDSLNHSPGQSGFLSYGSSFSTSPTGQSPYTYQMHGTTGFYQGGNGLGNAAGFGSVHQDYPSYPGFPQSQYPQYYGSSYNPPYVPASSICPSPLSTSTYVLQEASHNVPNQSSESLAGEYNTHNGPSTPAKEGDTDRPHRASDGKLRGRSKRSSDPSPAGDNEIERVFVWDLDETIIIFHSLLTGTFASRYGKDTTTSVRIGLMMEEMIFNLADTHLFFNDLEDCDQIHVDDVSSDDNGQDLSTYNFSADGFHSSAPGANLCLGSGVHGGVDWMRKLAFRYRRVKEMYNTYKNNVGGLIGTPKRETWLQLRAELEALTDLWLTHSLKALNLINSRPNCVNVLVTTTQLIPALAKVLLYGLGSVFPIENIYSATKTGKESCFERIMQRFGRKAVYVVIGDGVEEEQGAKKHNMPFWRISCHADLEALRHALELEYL
Target sequence (Q15475 whole entry, looked up): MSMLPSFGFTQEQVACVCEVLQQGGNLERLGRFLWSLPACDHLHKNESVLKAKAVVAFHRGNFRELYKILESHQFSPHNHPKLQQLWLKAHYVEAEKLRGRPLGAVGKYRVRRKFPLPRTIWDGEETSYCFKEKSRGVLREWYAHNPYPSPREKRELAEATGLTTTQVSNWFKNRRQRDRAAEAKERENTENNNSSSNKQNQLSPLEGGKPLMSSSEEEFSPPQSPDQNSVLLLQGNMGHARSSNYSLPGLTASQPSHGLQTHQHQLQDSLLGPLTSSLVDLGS
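AlphaScreen with GST-Six1 and His-Eya2 (5X mix: 250 nM and 500 nM), glutathione donor and nickel acceptor beads; buffer 50 mM Tris pH 8.0, 300 mM NaCl, 1 mM TCEP; 1 h at 37 C in the dark.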
D2 ag – Beta-Arrestin HTS for Positive Allosteric Modulators of the Human D2 Dopamine Receptor: Agonists; activation, % (concentration not given with the values); DiscoveRx PathHunter D2 beta-arrestin, luminescence, 90 min; 100% = 57 uM dopamine signal; actives 0.084% (n = 360,000); D(2) dopamine receptor (Homo sapiens), P14416; in the data active = activation above about 40%; inconclusive = about 15% to 40%; inactive = below about 15%; also: compound concentration not given in the record; the text of the record calls up to 30% inactive
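DiscoveRx PathHunter D2 beta-arrestin cells (2,100/well) attached overnight, then compound-stimulated 90 min at 37 C in HBSS/10 mM HEPES/0.1% Tween-20 buffer; beta-galactosidase complementation read by luminescence after 1 h at ambient temperature. Dopamine 57 uM final (EC100) as control.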
gsp agonist – qHTS for Agonist of gsp, the Etiologic Mutation Responsible for Fibrous Dysplasia/McCune-Albright Syndrome: qHTS; gsp mutant cells, cAMP HTRF, 30 min; control for the full effect not named in the record; AID 624287, 2012; actives 0.13% (n = 340,000); Potency, µM (titrated, usually from 76.9 µM), inactives show at the top dose activation (cAMP increase), actives largely listed as activators; active = well fitted activation curve with a large enough effect; inconclusive = small, poorly fitted or top-dose-only effect, or another doubt; inactive = no such curve, though single readings can be large or run the other way; cell line not stated here;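 also: phosphodiesterase inhibitor Ro 20-1724 added with compounds to block cAMP breakdown; potency is read from the fitted curve at half-maximal effect; nearly all actives have a fitted effect of over 60% in size; about a fifth of the inactives were tested at one dose only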
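Cells stably selected in G418 were plated at 2000/well, grown 16-24 hr, then given compounds in DMSO with the PDE inhibitor […] (300 uM solution added) for 30 min at 37C; cAMP was read by HTRF.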
CtBP-E1A blk – qHTS Assay for Inhibitors of the CtBP/E1A Interaction. CtBP / adenovirus E1A interaction (AlphaScreen). AlphaScreen GST-E1A/His-CtBP binding, 1536-well; active compounds read low; control for the full effect not named in the record. activity change, % (test concentration not listed). actives 0.49% (n = 340,000). AID 651724, 2012; in the data active means activity change below about -65%; inconclusive means about -30% to -65%; inactive means above about -30%; also: % is scaled to controls: 0 for no effect and ±100 for the full control effect
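Steps: dispense buffer (Tris pH 8.0, NaCl 300 mM, TCEP 1 mM, BSA, Tween 20); add 5X protein mix (GST-E1A, His-CtBP, 125 nM each); pin 23 nL compound; 2 h at 37 °C, dark; add 5X beads (50 ug/mL); 1 h; read.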
D2 PAM – Beta-Arrestin HTS for Positive Allosteric Modulators of the Human D2 Dopamine Receptor: Potentiators. DiscoveRx D2 beta-arrestin cells, luminescence, 90 min; 100% = 57 uM dopamine signal. D(2) dopamine receptor (Homo sapiens), P14416. actives 0.23% (n = 360,000). potentiation, % (test concentration not listed); active = potentiation of 50% or more; inconclusive = 30% to 50%; inactive = 30% or less;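 also: compound concentration not given in the record; tested on top of an EC20 dose of dopamine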
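PathHunter D2 cells, attached overnight at 37 deg C, received compound in DMSO plus dopamine at EC20 (50 nM final) for 90 min at 37 deg C. Beta-arrestin recruitment was read as luminescence after 1 h with detection reagent at ambient temperature.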
gsp antag – qHTS for Antagonists of gsp, the Etiologic Mutation Responsible for Fibrous Dysplasia/McCune-Albright Syndrome: qHTS; actives 0.4% (n = 340,000); AID 624288, 2012; Potency, µM (top dose mostly 76.9 µM), for the others: at the top dose activity change, negative = inhibition, most hits filed as inhibitors; gsp-mutant cells, cAMP HTRF, 30 min; control for the full effect not named in the record; active = falling curve of any shape with a large fitted effect; inconclusive = falling curve, mostly with a smaller effect; inactive = flat or rising curve; cell line not stated here;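 also: intracellular cAMP measured with PDE inhibitor Ro 20-1724 present during compound exposure; potency is read from the fitted curve at half-maximal effect; % is scaled to controls: 0 for no effect and ±100 for the full control effect; nearly all actives have a fitted effect of over 65% in size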
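G418-selected cells were plated in DMEM/10% FBS for 16-24 h at 37C, then treated with compounds plus the PDE inhibitor […] (300 uM solution added) for 30 min at 37C. Intracellular cAMP was measured by HTRF after 30 min lysis at room temperature.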
* hit, by the source's call; ? = inconclusive; . = not tested or not shown; [ ] = another dose, or the depositor's remark.

The line under a structure holds: D2 PAM	Six1-Eya2 blk	CtBP-E1A blk	gsp antag	D2 ag	gsp agonist
O=C(NCCN1C(=O)S/C(=C\c2ccccc2Cl)C1=O)C1=COCCO1
→ 3	-3	4	1%	-1.9	-28%
O=S1(=O)N=C2CCCCCN2C(c2ccc(Br)cc2)N1 (stereo not drawn)
→ -4	2	-2	6%	-0.4	0%
Cc1ccc(NC(=O)CN(C)C(=O)c2cccc(Br)c2)cc1
→ -3	10	1	-2%	-3.8	27%
CCN(c1ccccc1)S(=O)(=O)c1ccc(Oc2ccc([N+](=O)[O-])cc2)nc1
→ 5	-10	9	2%	4.9	13%
Cc1oc(/N=C/c2ccc(Cl)cc2)c(C#N)c1C
→ 16	-1	5	6%	-1.8	3%
COc1ccc(OC)c(/C=C/C(=O)Nc2cccc(S(=O)(=O)NC3=NCCCCC3)c2)c1
→ -4	?	.	-10%	-1.3	3%
Cc1ccc(CNC(=O)[C@H](C)[C@H]2C[C@]2(C)[C@H](NC(=O)OCc2ccccc2)c2ccccc2)o1
→ -9	-4	-4	-7%	-1.0	.
O=C(CSc1n[nH]c(-c2ccccn2)n1)Nc1cccc(Cl)c1
→ -3	-93*	-97*	-19%	3.9	-10%
CN1CCN(C(=O)CSc2ccc(C(F)(F)F)cc2[N+](=O)[O-])CC1
→ -3	-9	1	-2%	-2.2	-8%
NS(=O)(=O)c1ccc(CCNC(=O)C2CCN(S(=O)(=O)c3cnc[nH]3)CC2)cc1
→ -11	-1	-1	9%	-0.4	7%
COCCNC(=O)C1(C)CCN(Cc2noc(-c3c(C)noc3C)n2)C1 (stereo not drawn)
→ -3	3	2	.	-4.5	.
CCN1C(N(C)CCc2c[nH]c3ccccc23)=N[C@@H](c2cccc(C(F)(F)F)c2)C(C(=O)OC)=C1C
→ -14	-8	-10	9%	2.5	.
Cn1c(=O)c2cc(NC(=O)NCCc3cccs3)ccc2n1Cc1cccc(C(F)(F)F)c1
→ 6	-6	0	.	?	.
Cc1ccc(C(=O)COC(=O)C(C)N2C(=O)C3C4CCC(C4)C3C2=O)cc1C (stereo not drawn)
→ -4	5	-21	-3%	-3.1	8%
CCCCCCCCC[n+]1cccc2c3ccccc3ccc21
→ -22	-4	-2	-14%	-6.5	-1%
CCc1ccc(C2CC(c3ccc(Cl)cc3)n3nc(N)nc3N2)cc1 (stereo not drawn)
→ -3	3	2	-3%	0.3	?
COC(=O)c1nn(-c2ccccc2)c2nnc(Cc3ccc(C)cc3)c(=O)n12
→ -7	-29	5	15%	-3.7	-13%[15.4 µM]
CSCCC(NC(N)=O)C(=O)Nc1cccc(S(=O)(=O)N2CCOCC2)c1 (stereo not drawn)
→ -4	8	-1	22%	-4.6	-3%[15.4 µM]
O=C(NCc1n[nH]c(=S)n1Cc1ccccc1)c1ccccc1
→ -11	-4	.	-8%	-0.5	0%
COCCCNC(=O)Cc1c(C)c2cc3c(cc2oc1=O)OC(C)(C)CC3
→ -3	4	.	-2%	4.1	-1%
CC(C)C(=O)Nc1cccc(C(=O)Nc2cc([N+](=O)[O-])ccc2F)c1
→ -14	-3	.	-5%	-10	-24%
Cc1ccc(N2CCN(C(=O)c3cccc([N+](=O)[O-])c3)CC2)cc1Cl
→ 0	-17	-11	-34%	-3.9	4%[15.4 µM]
O=C(CCN1C(=O)COc2ccccc21)NCCN1CCN(c2cccc(Cl)c2)CC1
→ -29	-7	6	5%	-0.9	-27%
COc1ccc(C(=O)COC(=O)CNS(=O)(=O)c2ccc(C)cc2)cc1
→ -22	0	13	-29%	0.9	17%[15.4 µM]
Nc1n[nH]c2c1C1(CCCCC1)Cc1ccccc1-2
→ -5	-1	2	-15%	-0.4	-10%
CCCCNC(=O)CN1C(=O)CSc2ccc(S(=O)(=O)N3CCOCC3)cc21
→ 4	1	0	.	-1.6	25%
c1ccc(CN2CCC(Nc3nc(-c4cccs4)nc4ccccc34)CC2)cc1
→ -21	-15	.	-13%	-2.8	-82%[inhibitor]
COc1ccc(C(=O)NCc2nnc(SCC(=O)Nc3nnc(C)s3)o2)cc1OC
→ 1	-28	-3	14%	1.5	?
CSc1nc2ccccc2n1CC(=O)Nc1c(C)n(C)n(-c2ccccc2)c1=O
→ -3	1	9	0%	-2.7	-41%
O=C(NC1CCS(=O)(=O)C1)c1cccc(S(=O)(=O)N2CCCC2)c1 (stereo not drawn)
→ -1	8	2	8%	-2.3	-10%
Cc1nc2nc(SCC(=O)Nc3cccc(F)c3)[nH]c2cc1Br
→ 1	-1	0	-13%	-0.5	?
Cc1cccc(C(C)C)c1NC(=O)CSc1ncnc2[nH]ncc12
→ 0	-19	-6	-3%	2.4	-21%
CCc1c(C#N)c(SCCC(=O)Nc2ccc(OC)cc2)nc2c1C(=O)CC(C)(C)C2
→ 22	-4	-1	-9%	-0.4	3%
CN(CC(=O)Nc1ccccc1Br)C(=O)C(Cc1ccccc1)NC(=O)c1ccccc1 (stereo not drawn)
→ -20	9	11	-19%	-1.9	-1%[15.4 µM]
Cc1ccc(CNC(=O)Cn2cnc3c(NC(=O)OCc4ccccc4)ncnc32)o1
→ -5	0	-3	0%	-1.3	-7%
COc1ccc(N(CC(=O)NC2CCCCC2)C(=O)CNC(=O)c2ccco2)c(OC)c1
→ -9	1	4	10%	-0.7	?
COC(CNc1ccc([N+](=O)[O-])c(NCC(OC)OC)c1C#N)OC
→ -5	-5	6	-5%	1.4	24%
CCOC(=O)N1CCC(N2Cc3cccc(C(=O)Nc4ccc(OC)c(OC)c4)c3C2=O)CC1
→ 3	-23	-10	-18%	1.7	-14%
CCCC(CCC)n1[nH]c(=O)c2c(C)cc(C)nc21
→ -6	1	2	-10%	0.4	6%
CCS(=O)(=O)N1CCC(NC(=O)C2CCCCC2)CC1
→ -5	10	-5	2%	0.9	7%
COC(=O)NNC(=O)Cc1cccc2ccccc12
→ 9	-4	2	7%	-0.4	-28%
O=C1C2C3C=CC(C3)C2C(=O)N1c1ccc2ccccc2c1 (stereo not drawn)
→ -2	4	7	-1%	-2.8	-16%
COc1ccc(CNC(=O)C2CCCN(S(=O)(=O)c3ccc4c(c3)CCCN4C(C)=O)C2)cc1 (stereo not drawn)
→ -28	0	-8	-19%	-0.6	-27%
CC1(C)COC(Cn2c3ccccc3c3ccccc32)O1 (stereo not drawn)
→ -3	42	15	-8%	-7.9	1%
Cc1c(CCC(=O)O)c(=O)oc2cc3occ(-c4ccccc4)c3cc12
→ -4	?	?	-32%	0.0	3%[15.4 µM]

Exported with bars between the fields: entries from further up.
smiles | D2 PAM | Six1-Eya2 blk | CtBP-E1A blk | gsp antag | D2 ag | gsp agonist
CCS(=O)(=O)N1CCC(NC(=O)C2CCCCC2)CC1 | -5 | 10 | -5 | 2% | 0.9 | 7%
COC(=O)NNC(=O)Cc1cccc2ccccc12 | 9 | -4 | 2 | 7% | -0.4 | -28%
O=C1C2C3C=CC(C3)C2C(=O)N1c1ccc2ccccc2c1 (stereo not drawn) | -2 | 4 | 7 | -1% | -2.8 | -16%

The list continues.
The line under a structure holds: D2 PAM	Six1-Eya2 blk	CtBP-E1A blk	gsp antag	D2 ag	gsp agonist
COc1ccc(CN2CCNC(=O)C2CC(=O)N2CCCCO2)c(OC)c1 (stereo not drawn)
→ -1	-3	4	4%	-3.9	-9%[15.4 µM]
CCOC(=O)C(=O)N(C)c1c(CC)nc2c(OCc3cccc(Cl)c3)cccn12
→ -5	0	-1	.	-3.4	.
CCN1CCN(C(=O)NC2CC(=O)N(c3ccc(OC)cc3)C2)CC1 (stereo not drawn)
→ -8	8	5	13%	-1.1	3%
COc1ccccc1CCC(=O)OCC(=O)N1CCN(S(=O)(=O)c2ccc(C)cc2C)CC1
→ -2	-2	1	5%	-2.3	-9%[15.4 µM]
CCOC(=O)C1(C)CCCN(C(=O)c2cccc(OC(F)(F)F)c2)C1 (stereo not drawn)
→ -7	1	-16	.	-3.1	.
COc1cc(/C=N/NC(=O)NC23CC4CC(CC(C4)C2)C3)ccc1OCC(N)=O
→ 4	-2	.	-1%	3.9	7%
O=C(c1ccnc(Cl)c1)N1CCCC(Nc2ccc(F)cc2)C1 (stereo not drawn)
→ -1	2	-4	7%	-5.7	1%[15.4 µM]
CN(C(=O)c1cccc(NC(=O)Cc2ccc(NC(=O)C3CCN(C(=O)C4CCCC4)CC3)cc2)c1)C1CC1
→ 4	0	-6	5%	-1.9	.
Cc1ccc2cc(C3CC(c4ccco4)=NN3S(=O)(=O)c3ccccc3)c(Cl)nc2c1 (stereo not drawn)
→ -5	-11	-5	-6%	-3.4	-7%
CC(=O)NC1=NN(C(C)=O)C(C)(CS(=O)(=O)c2ccc(Cl)cc2)S1 (stereo not drawn)
→ 8	-1	-3	11%	-0.3	-18%
CC(=O)c1cnn(-c2ccccc2)c1C
→ 5	-3	0	2%	-3.6	4%[15.4 µM]
O=C(Nc1nc2ccccc2s1)C1CC(=O)N(c2ccc(F)cc2)C1 (stereo not drawn)
→ -9	-3	-2	10%	-3.3	-19%
COc1cccc(-c2cc(C(=O)NCc3ccc(Cl)cc3)no2)c1
→ -13	1	5	4%	-1.9	30%
O=C(OCC(=O)c1cccs1)c1ccccc1
→ 13	9	10	17%	0.2	-45%
CN(C#N)c1nc(N2CCOCC2)nc(N2CCOCC2)n1
→ -11	3	3	4%	2.4	17%[15.4 µM]

From PubChem BioAssay
